Screening results deposited in PubChem BioAssay by National Center for Advancing Translational Sciences (NCATS).
miR-21 reporter: raises the signal of a miR-21 reporter; Potency, µM (highest dose often 38.3 µM), for inactives: top-dose reporter change, positive = more light; HeLa miR-21 FLuc reporter, luciferase, 48 h; 340,000 tested, under 10 active; active = well fitted rising curve with a large enough effect; inconclusive = small, poorly fitted or top-dose-only effect; inactive = no such curve, though single readings can be large or run the other way;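 note: % of control where 0% means no effect; miR-21 action dims this reporter so a rising signal means less miR-21 action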
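HeLa cells stably expressing CMV-driven firefly luciferase with a downstream miR-21 binding sequence, endogenously expressing miR-21, were treated with titrations (up to about 40uM final) for 48 hours at 37 degree Celsius. Luciferase luminescence was read after lysis.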
Rango release inh: prevents RanGTP from dissociating the Rango-importin beta complex | O95149+P62826 | Biochemical FRET Rango-importin beta, RanGTP-induced dissociation | Potency, µM (series often up to 46.1 µM), without a hit: top-dose activity change, negative = inhibition | 340,000 tested, 0.071% active | AID 540253; active means falling FRET ratio curve, often poorly fitted, with flat reads before Ran was added; inconclusive means other falling curves, or compound fluorescence or quenching; inactive means flat or rising ratio curve;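 note: potency is the fitted concentration of half-maximal effect; % of control where 0% means no effect; nearly all actives have a fitted effect of over 45% in size; -100% = wells without RanGTP and RCC1; the record marks most hits as doubtful in a second field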
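Compounds sat 5 min at room temperature with 0.1 uM Rango biosensor plus 0.25 uM importin beta, then FRET pre-read. RanGTP-RCC1 (0.6 uM Ran, 2mM GTP, 0.2 uM RCC1) added for 45 min, and the CFP/YFP post-read measured blocked complex dissociation.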
Rango-impB inh: Rango-importin beta binding inhibition. Q14974. Rango CFP/YFP FRET sensor + importin beta, 45 min. Potency, µM (titrated, usually from 92.2 µM), for inactives: at the highest dose inhibition of complex formation. 340,000 tested, 0.031% active. AID 540263; active = rising FRET ratio curve, often small or poorly fitted; inconclusive = mostly compound fluorescence or quenching in the first reads; inactive = flat curves in all reads;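 note: potency is the fitted concentration of half-maximal effect; 0% = DMSO wells and 100% = buffer wells lacking importin beta; nearly all actives have a fitted effect of over 15% in size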
Target sequence (Q14974 whole entry, looked up): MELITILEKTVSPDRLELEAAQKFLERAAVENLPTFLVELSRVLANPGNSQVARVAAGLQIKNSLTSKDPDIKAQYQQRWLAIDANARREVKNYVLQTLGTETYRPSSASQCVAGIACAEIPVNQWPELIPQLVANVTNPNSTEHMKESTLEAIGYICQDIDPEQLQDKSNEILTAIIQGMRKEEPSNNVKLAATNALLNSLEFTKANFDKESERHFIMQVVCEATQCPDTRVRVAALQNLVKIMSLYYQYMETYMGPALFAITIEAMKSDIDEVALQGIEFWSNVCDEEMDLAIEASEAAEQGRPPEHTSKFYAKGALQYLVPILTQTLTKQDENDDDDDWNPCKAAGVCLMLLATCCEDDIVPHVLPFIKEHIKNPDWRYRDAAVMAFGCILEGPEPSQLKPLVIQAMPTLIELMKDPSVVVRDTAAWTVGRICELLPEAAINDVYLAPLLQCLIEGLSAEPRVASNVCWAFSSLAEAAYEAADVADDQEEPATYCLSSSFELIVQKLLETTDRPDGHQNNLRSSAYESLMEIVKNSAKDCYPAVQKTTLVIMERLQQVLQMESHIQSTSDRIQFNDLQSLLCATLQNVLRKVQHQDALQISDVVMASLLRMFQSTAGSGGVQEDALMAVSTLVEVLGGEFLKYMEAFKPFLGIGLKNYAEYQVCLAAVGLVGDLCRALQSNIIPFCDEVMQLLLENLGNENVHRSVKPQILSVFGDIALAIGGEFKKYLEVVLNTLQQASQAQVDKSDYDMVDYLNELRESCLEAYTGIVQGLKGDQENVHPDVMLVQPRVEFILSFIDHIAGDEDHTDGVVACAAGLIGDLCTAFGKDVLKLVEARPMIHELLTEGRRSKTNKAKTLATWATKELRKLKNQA
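Inhibition scored from the CFP 486 nm/YFP 530 nm FRET ratio 45 min after adding 0.125 microM importin beta to 50 nM Rango biosensor preincubated 5 min with compound (room temperature, PBS with DTT, Tween-20, BSA). No-importin wells as positive control.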
GLA inh pH 4.5: blocks human alpha-galactosidase A at pH 4.5; P06280; purified enzyme, 4-MU-alpha-Gal fluorescence, pH 4.5; activity change, negative = inhibition, % at 105 µM; 230,000 tested, under 10 active; AID 1467; inconclusive = small, poorly fitted or top-dose-only inhibition, or a rising curve; inactive = flat fitted curve, though single readings scatter; no compound was filed as active;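 note: 0% = full activity with enzyme and -100% = basal without enzyme; dose as in the result columns while the protocol names 77 µM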
Active calls of the source: *; ? = inconclusive; . = not tested or not shown.

Each structure is followed by: miR-21 reporter, Rango release inh, Rango-impB inh, GLA inh pH 4.5
- COc1ccccc1Cn1c(=S)[nH]c2ccc(Br)cc2c1=O
→ -4%, 6%, -1.1%, .
- O=C(NCCCc1ccccc1)c1ccncc1
→ -13%, -15%, -1.4%, 8
- COc1ccccc1-c1nnc2sc(COc3ccc(Cl)cc3)nn12
→ -4%, -1%, 3.5%, -12
- COc1cc(/C=N/NC(=O)/C(=C\c2ccc([N+](=O)[O-])cc2)NC(=O)c2ccccc2)cc(OC)c1O
→ 3%, 2%, 0.6%, -16
- CCCc1ccc(C(=O)NNC(=O)c2ccc(Cl)cc2)cc1
→ -16%, 5%, 1.4%, 18
- Brc1c(-c2ccccc2)nc2n1Cc1ccccc1-2
→ -34%, 10%, -1.6%, -3
- COc1ccc(-c2noc(-c3ccco3)n2)cc1OC
→ -65%, -7%, -1.8%, 7
- CC1CC(C)CN(CC(=O)NCCc2ccc(S(N)(=O)=O)cc2)C1 (stereo not given)
→ 3%, -1%, -3.8%, -2
- CCCCC(O)(CCCC)C(=O)NN(C(=O)CCl)c1ccccc1
→ 16%, -20%, 2.9%, -5
- COCc1cc(CN(C)C(=O)c2oc3c(F)cccc3c2C)[nH]n1
→ -36%, -1%, 0.8%, .
- Cc1ccc(C(=O)COC(=O)c2ccc(Br)o2)cc1C
→ -7%, 24%, 6.1%, -4
- CC(=O)Nc1ccc(NC(=O)c2ccc(Cn3cc(Cl)cn3)cc2)cc1
→ -2%, 5%, 0.6%, 7
- Cc1ccc(C2=NN(C(=O)CCC(=O)O)C(c3cccs3)C2)cc1 (stereo not given)
→ -22%, 0%, 3.7%, -4
- COc1ccc(-n2ncc3c(NCCN4CCOCC4)ncnc32)cc1
→ -54%, 0%, -1.0%, -2
- CCC(C)NC(=O)CNC(=O)c1nn(-c2ccc(OC)cc2)c(=O)c2ccccc12 (stereo not given)
→ 3%, 10%, 5.7%, .
- Cc1ccccc1NC(=O)COc1ccc(Br)cc1C
→ -56%, ?, 9.9%, -3
- CC(C)c1ccc(NC2CCCN(C(=O)C3=NN(C)C(=O)CC3)C2)cc1 (stereo not given)
→ 0%, 40%, 2.9%, .
- CC(=O)NC1CCC(OC(=O)Nc2ccccc2)CC1 (stereo not given)
→ ., -5%, 0.3%, .
- Cc1ccc(NCC(=O)N/N=C\c2cccc(O)c2)cc1
→ -8%, -4%, -0.3%, -13
- CN1CCC[C@@H]1CCNC(=O)c1cccc2c1C(=O)c1ccc(N3CCCC3)cc1S2(=O)=O
→ ., ?, ?, .

Brought forward from above: 2 compounds, followed by the next part.
Each structure is followed by: miR-21 reporter, Rango release inh, Rango-impB inh, GLA inh pH 4.5
- Cc1ccc(NCC(=O)N/N=C\c2cccc(O)c2)cc1
→ -8%, -4%, -0.3%, -13
- CN1CCC[C@@H]1CCNC(=O)c1cccc2c1C(=O)c1ccc(N3CCCC3)cc1S2(=O)=O
→ ., ?, ?, .
- Cc1cc(C(C)(C)C)oc1C(=O)OCC(=O)NC1CCCCC1
→ 0%, -23%, -4.5%, 11
- CCc1ccccc1NS(=O)(=O)c1cc2c(cc1C)n(C)c(=O)c(=O)n2C
→ 1%, 7%, -3.2%, .
- C/C(CC(=O)Nc1ccc(Cl)cc1Cl)=N\NC(=O)c1ccco1
→ -60%, -7%, 2.1%, -11
- COC(=O)/C=C\C(C#N)(C#N)N=Cc1ccc(OC)cc1
→ ., -15%, ?, .
- CCOC(=O)c1ccccc1NC(=O)c1cccs1
→ -9%, 3%, 3.5%, 4
- O=C(Nc1ccc(-c2nnn(CC(=O)N3CCN(C(=O)c4ccco4)CC3)n2)cc1)c1ccc(F)cc1
→ 12%, 11%, 5.2%, -3
- Cc1ccc(NC(=O)CN2C(=O)NC(C)(C3CC3)C2=O)cc1S(=O)(=O)N1CCCCC1 (stereo not given)
→ ., -2%, -1.2%, .
- COc1ccc(CN2CCNC(=O)C2CC(=O)NC2CCOCC2)cc1C (stereo not given)
→ -5%, -3%, -3.2%, .
- COc1ccccc1NC(=O)CCCCC(=O)Nc1ccccc1OC
→ 0%, -7%, -0.3%, .
- NC(=O)c1ccccc1N/C=C/C(=O)c1ccccc1
→ -37%, 19%, -2.2%, -3
- CCN(CCCNC(=O)CNC(=O)c1nn(-c2ccc(OC)c(OC)c2)c(=O)c2ccccc12)c1ccccc1
→ 17%, -4%, 3.0%, .
- CCc1ccccc1S(=O)(=O)Cc1ccc(C(=O)NCc2cccs2)o1
→ 4%, -18%, 0.7%, -5
- Cc1cccc(NS(=O)(=O)c2cn(C)c(=O)n(C)c2=O)c1C
→ -1%, -11%, -0.4%, .
- COc1ccc(CNC(=S)N/N=C/c2ccc(O)c(OC)c2)cc1
→ -10%, -2%, -2.4%, -2
- O=C(Cc1cccs1)Nc1nnc(COc2ccccc2)s1
→ ., -4%, 0.0%, .
- CSCCC(NS(=O)(=O)c1ccc(C)cc1)C(=O)NCCc1c[nH]c2ccccc12 (stereo not given)
→ 5%, -8%, -0.1%, .
- Cc1ccc(N2C(=O)C(Cl)=C(NCc3ccccc3)C2=O)c(C)c1
→ -8%, -14%, ?, -6
- Cc1ccc(C23CC4CC(CC(C(=O)OCC(=O)N(C)C)(C4)C2)C3)cc1
→ 1%, 1%, 1.2%, .
- CCN(CC(=O)NCc1ccc(Cl)cc1)C(=O)/C=C/c1ccco1
→ -4%, -6%, -3.3%, -3
- Cc1ccc(NC(=O)CCn2cccc2)cc1Cl
→ -24%, 16%, 2.2%, -1
- CCc1nnc(NS(=O)(=O)c2ccc(NC(=O)c3ccccc3O)cc2)s1
→ -4%, -2%, -2.3%, .
- Cc1oc(-c2ccccc2F)nc1CS(=O)CC(=O)NCc1ccccc1 (stereo not given)
→ -1%, -2%, -0.8%, .
- Cc1ccccc1-c1nc(CS(=O)(=O)CC(=O)NCc2ccco2)c(C)o1
→ 0%, -5%, 4.1%, .
- CN1CC(=O)N2[C@H](c3ccc4c(c3)OCO4)c3[nH]c4ccccc4c3C[C@@H]2C1=O
→ -43%, 36%, 0.4%, -3
- ON1C2CCCCC2N(O)C1c1c(F)c(F)c(F)c(F)c1F (stereo not given)
→ -3%, -3%, -0.6%, 1
- Cc1ccccc1NC(=O)C1C2CCCC1C2c1ccccc1 (stereo not given)
→ -3%, 4%, -5.9%, -1
- CC(C)c1ccc(S(=O)(=O)N2CCN(C(=O)c3cccc(F)c3)CC2)cc1
→ 1%, 1%, 0.3%, 0
- c1ccc(CSc2ncnc3c2cnn3Cc2ccccc2)cc1
→ -9%, 17%, -4.6%, 5
- CCC(c1nnnn1CCOC)N1CCN(c2nc3ccccc3s2)CC1 (stereo not given)
→ -3%, 4%, -0.3%, 5
- Cc1ccc2c(c1)c1c3n2CCN(C(=O)Cn2c(-c4ccccc4)noc2=O)C3CCC1 (stereo not given)
→ 3%, 19%, -0.5%, 1
- Cc1csc(NC(=O)CSc2nnc(-c3ccccn3)n2-c2ccc(C)c(C)c2)n1
→ -4%, 6%, -2.3%, 4
- CCOC(=O)N1CCN(C(=O)c2cccc(S(=O)(=O)Nc3ccc(F)cc3)c2)CC1
→ ., 4%, 3.1%, .
- O=C1CSC(c2ccccc2[N+](=O)[O-])N1c1ccccc1 (stereo not given)
→ 1%, -2%, 1.2%, 5
- S=C(Nc1ccc(Oc2ccccc2)cc1)N(CCCN1CCOCC1)Cc1ccccn1
→ -4%, -18%, -1.2%, -5
- COc1cc(F)ccc1S(=O)(=O)N1CCN(c2ccccc2)CC1
→ 2%, 2%, -0.9%, .
- CCCn1c(SCC(=O)NC2CCCC2)nnc1C(C)C
→ -5%, 9%, 0.9%, .
- N/C(=N\OC(=O)Oc1ccccc1)c1ccc([N+](=O)[O-])cc1
→ -4%, 22%, -4.1%, 6
- CC(=O)Nc1ccccc1C(=O)C(=O)Nc1ccc(Cl)cc1
→ -53%, 18%, -5.2%, -6
- COC(=O)c1scc(C)c1NC(=O)c1ccc(Cl)cc1
→ 2%, -4%, 2.6%, .
- COc1ccc(-n2cccc2/C=C2/NC(=O)N(c3cccc(Cl)c3)C2=O)cc1
→ -21%, -4%, ?, -3

(list continues)
SMILES | miR-21 reporter | Rango release inh | Rango-impB inh | GLA inh pH 4.5
COc1ccc(-n2c(C)c([N+](=O)[O-])c3ccc(O)c(CN(C)C)c32)cc1 | 28% | 5% | -0.1% | -23
Cc1ccc(S(=O)(=O)c2c(C)nn(C(C)(C)C)c2OC(=O)CC(C)C)cc1 | ? | -7% | 1.8% | -12
O=C(NCCC(=O)N1CCN(S(=O)(=O)c2ccccc2Cl)CC1)Nc1ccccc1 | . | 29% | 15% | .
CCCNS(=O)(=O)c1ccc(OCC(=O)N2CCc3ccccc3C2)c(C)c1 | 14% | 17% | 1.4% | .
CC(=O)N/N=C(\C)CCc1ccccc1 | 1% | 15% | -2.5% | -4
O=C(c1ccc(Cl)c(S(=O)(=O)NCc2ccccc2)c1)N1CCN(c2ccccn2)CC1 | 24% | -1% | -0.6% | 1
COc1ccc(OC)c(CNn2c(-c3ccccc3F)nc3ccccc3c2=O)c1 | 27% | -7% | -0.5% | 0
COc1ccccc1N1CCN(C2CCCN(Cc3cc(F)cc(F)c3)C2)CC1 (stereo not given) | 14% | 12% | 0.6% | .
CN1CCN(C(=O)CSc2nnc(COc3ccc(Cl)cc3)o2)CC1 | -10% | -13% | -1.1% | .
O=P1(O)C=C(c2ccccc2)OC(c2ccccc2)=C1 | -40% | -11% | 0.3% | -7
CC(C)n1c(SCC(=O)NC2CCCCC2)nnc1-c1ccco1 | 5% | 15% | 0.5% | .
Cc1nc2nc(NCc3cccs3)nn2c(C)c1Cl | -43% | -8% | -1.5% | 7
COc1ccc(S(=O)(=O)N2CCN(Cc3ccco3)CC2)cc1 | -5% | 2% | -0.3% | .
CCCCc1ccc(Nc2nc(N3CCOCC3)nc(N3CCOCC3)n2)cc1 | -1% | -12% | -1.1% | .
NC(=O)c1ccc(-n2nnnc2Oc2ccc(Br)cc2)cc1 | 2% | 1% | 6.4% | 4
C/C(=N\NC(=O)CNc1cccc(C(F)(F)F)c1)c1cccs1 | -11% | -9% | -4.9% | 5
O=C(Nc1ccc2c(c1)OCO2)Nc1ccc(Cl)cc1Cl | -55% | -7% | 2.6% | 5
O=C(N=C1SCC(=O)N1c1ccccc1Cl)c1ccco1 | -48% | -17% | 3.7% | -2
O=C1C(Cl)=C(NCCN2CCCCC2)C(=O)c2ccccc21 | ? | 9% | 0.2% | -1
Cc1cccc(NC(=O)c2ccc(Cl)c(NC(=O)c3ccncc3)c2)c1C | -8% | 5% | 0.1% | -3
C/C(=N\NC(=O)c1c(Br)cnn1C)c1ccc(NC(=O)c2ccc(F)cc2)cc1 | -28% | 3% | 1.6% | 6
CC(C)=Nc1ccccc1C1COC(=O)C1=N (stereo not given) | -4% | 0% | -0.7% | -1
CN(Cc1ccccc1F)c1nc(-c2cccs2)nc2ccccc12 | -1% | -15% | -0.7% | 7
COc1ccc(CCn2c(=O)[nH]c3cc(C(=O)NCCCN4CCOCC4)ccc3c2=O)cc1OC | -1% | 23% | -5.3% | -3
CCOC(=O)C(C)n1cnc2c(nnn2-c2ccccc2)c1=O (stereo not given) | -13% | -1% | -1.0% | .
CCCN(C(=O)c1cc(S(=O)(=O)N2CCN(CC)CC2)ccc1Cl)C1CCS(=O)(=O)C1 (stereo not given) | . | 5% | -0.7% | .
CCN(CCn1cccn1)C(=O)CCc1nnc(-c2ccccc2)o1 | -34% | -8% | 0.6% | 5
CS(=O)(=O)N(CC(=O)Nc1ccc(F)c(F)c1)c1cccc([N+](=O)[O-])c1 | 1% | 7% | -4.9% | -8
Cc1cc(C)c(C#N)c(Sc2ccccc2N)n1 | -33% | 6% | -2.5% | 2
CN(C(=O)CSc1nc2c(c(=O)[nH]1)CCCC2)C1CCCCC1 | 0% | 5% | -1.8% | 5

Of the compounds above, 2 have a tert-butyl group:
SMILES | miR-21 reporter | Rango release inh | Rango-impB inh | GLA inh pH 4.5
Cc1cc(C(C)(C)C)oc1C(=O)OCC(=O)NC1CCCCC1 | 0% | -23% | -4.5% | 11
Cc1ccc(S(=O)(=O)c2c(C)nn(C(C)(C)C)c2OC(=O)CC(C)C)cc1 | ? | -7% | 1.8% | -12

Some of the compounds tested (hit frequency here may not be typical).
